Screening results: PubChem BioAssay, several laboratories
Arbovirus inh = antivirals against arbovirus infection; arbovirus infection cell-based antiviral screen; inhibition, % at 10 µM; 200,000 tested, 0.37% active; AID 1251;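 active = inhibition from about 30%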;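 note: bluetongue infection of BSR cells; cell survival read as ATP light after 72 h; 0% = infected wells without compound and 100% = uninfected wells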
RecA splice inh = Mtb RecA intein splicing inhibition; inhibition, %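 (about 9 µM by stock and volumes)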; P9WHJ3; 290,000 tested, 0.75% active; cell-free RecA intein splicing, fluorescence; in the data active = inhibition above about 30%; inconclusive = no clear call, values can overlap the other calls;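 note: 0% = vehicle wells and 100% = reference inhibitor control wells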
Target sequence (P9WHJ3 whole entry, looked up, canonical isoform): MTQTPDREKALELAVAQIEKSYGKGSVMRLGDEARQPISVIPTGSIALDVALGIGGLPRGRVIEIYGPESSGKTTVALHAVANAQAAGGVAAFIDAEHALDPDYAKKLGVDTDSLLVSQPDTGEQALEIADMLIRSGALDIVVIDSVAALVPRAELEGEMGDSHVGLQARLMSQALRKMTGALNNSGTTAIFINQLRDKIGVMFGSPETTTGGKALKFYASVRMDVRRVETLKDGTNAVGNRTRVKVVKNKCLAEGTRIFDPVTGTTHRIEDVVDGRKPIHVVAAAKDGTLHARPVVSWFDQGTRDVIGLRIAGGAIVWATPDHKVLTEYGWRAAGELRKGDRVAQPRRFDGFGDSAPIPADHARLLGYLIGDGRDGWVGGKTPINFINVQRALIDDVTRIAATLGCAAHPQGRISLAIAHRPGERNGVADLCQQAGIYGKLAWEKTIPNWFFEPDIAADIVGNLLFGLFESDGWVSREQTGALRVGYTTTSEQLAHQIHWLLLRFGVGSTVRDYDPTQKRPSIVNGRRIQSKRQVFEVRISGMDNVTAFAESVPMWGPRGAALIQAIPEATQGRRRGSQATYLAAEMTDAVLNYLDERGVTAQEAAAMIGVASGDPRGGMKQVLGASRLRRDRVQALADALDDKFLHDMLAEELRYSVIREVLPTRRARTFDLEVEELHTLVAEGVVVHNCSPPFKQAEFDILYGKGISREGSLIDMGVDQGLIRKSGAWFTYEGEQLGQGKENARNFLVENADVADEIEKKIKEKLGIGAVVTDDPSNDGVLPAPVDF
YopH inh = YopH (Yersinia) phosphatase inhibition. fluorescence Ex485/Em525. inhibition, %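 (about 10 µM by stock and volumes)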. 140,000 tested, 0.16% active. AID 898;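 active = inhibition of 50% or more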;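 note: controls were vehicle for no effect and minimum signal wells for full effect; inactives centre near -20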
Mtb H37Rv = M. tuberculosis H37Rv growth inhibitors, H37Rv strain (AID 1626). M. tuberculosis H37Rv growth inhibition; higher % means a stronger effect. inhibition, % at 10 µM; hits with a dose series show IC50 in µM. 220,000 tested, 0.95% active;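 active = confirmed in a dose series; inconclusive = inhibition above 80% but not taken into the dose series; inactive = below 80% or under 30% at every dose of the series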;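 note: bacteria incubated seven days before Alamar blue readout; 0% = bacteria only wells and 100% = bacteria with antibiotic wells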
Mtb betalactam = beta-lactam sensitization of Mtb H37Rv; M. tuberculosis H37Rv growth with meropenem, percent inhibition; hits of this screen are not shown here; inhibition, % at 25 µM; 330,000 tested, 0.27% active;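 active = about 74% or more and at least 40 points above the plate without the antibiotic, then above 30% in a dose series; inconclusive = first-round hits that could not be retested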;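 note: growth measured after seven days incubation then overnight dye step; 0% = bacteria only wells and 100% = bacteria with antibiotic; twin plates without the antibiotic show which effects depend on it; some results filed as inactive read as strong as hits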
Arbovirus inh repeat = further read-out of Arbovirus inh, marked with its call; inhibition, %; measured here: 10K subset replicate screen; many hits read low in the repeat;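 first of two repeat runs on a subset; 0% = infected and 100% = uninfected wells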
* = called active by the depositor; ? = inconclusive; . = no result given; & = joins results of further samples.

SMILES	Arbovirus inh	RecA splice inh	YopH inh	Mtb H37Rv	Mtb betalactam	others
Cc1cccc(-c2nc3ccccc3c(=O)n2NC(=O)c2cccnc2Cl)c1	-7	-1.0	-12	-2%	-7
O=C(Nc1ccc(F)cc1)C1CCN(S(=O)(=O)c2ccc3[nH]c(=O)oc3c2)CC1	.	0.4	.	.	3
COc1cc(/C=N/NC(=O)c2c(C)nc3ccc(Cl)cn23)cc(OC)c1OC	.	-0.3	.	.	-1
CCOC(=O)N1CCN(C(=O)CNC(=O)C23CC4CC(CC(C4)C2)C3)CC1	.	0.6	.	.	2
CCCN(Cc1cc2cc(C)ccc2[nH]c1=O)C(=O)c1cccc([N+](=O)[O-])c1	.	2.2	.	2%	-2
Cc1cc(C)nc(SCc2ccc(C(=O)N/N=C3\CCCC(=O)C3)cc2)n1	12	-0.9	.	-5%	-4
Cn1cnnc1Sc1ccc(C(=O)NCCC(c2ccccc2)c2ccccc2)cc1[N+](=O)[O-]	-1	15	-32	8%	0
O=C(Cc1ccc2c(c1)CCCC2)Nc1ccc2ccccc2c1	-18	5.8	-23	-3%	-2
Nc1nc2nccc(-c3cccnc3)n2n1	-3	2.1	.	-1%	-8
O=C(C1=C(O)C(=O)N(CCc2ccccc2)C1c1ccncc1)c1cc2ccccc2o1 (centres undefined)	3	2.7	.	-3%	-5
Cc1nc(-c2cc(-c3ccc(Cl)cc3)no2)cs1	.	-0.7	.	.	1
Cc1c(NC(=O)c2ccccc2)c(=O)n(-c2ccccc2)n1C	-3	-0.5	-10	6%	0
S=c1[nH]nc(Cc2cccs2)n1-c1cccc2ccccc12	4	-0.7	-25	2%	1
O=C(NCc1ccco1)c1ccc(CS(=O)(=O)Cc2ccc(Cl)cc2)o1	15	.	-5	5%	-6
CN(C)C(=O)N1CCC(C(=O)NCc2cccs2)CC1	5	0.7	-20	-2%	5
O=S(=O)(NCc1ccc(C(F)(F)F)cc1)c1ccc(-n2cnnn2)cc1	.	-0.6	.	.	-3
C[C@H](NC(=O)c1ccccc1Cl)C(=O)NCCc1ccc(S(N)(=O)=O)cc1	.	0.0	.	.	-3
Cc1cc([N+](=O)[O-])nn1Cc1ccc(F)cc1	0	0.5	.	-4%	.
CC(C)(C)C(=O)NC(NC(=S)Nc1ccc(S(N)(=O)=O)cc1)C(Cl)(Cl)Cl (centres undefined)	2	4.4	-18	6%	-3
Cc1nnc2n(-c3ccccc3)c(=O)c3ccccc3n12	.	-3.5	.	.	-4
COc1cc(OC)cc(C(=O)N2CCN(c3ccccn3)CC2)c1	.	1.2	.	.	2
O=C1c2ccccc2-c2onc3ccc(N4CCCC4)c1c23	-39	55*	.	6%	.
O=C(NCc1ccccc1F)C1CCN(S(=O)(=O)c2ccccc2)CC1	.	0.0	.	.	-7
COc1ccc(Br)cc1CNC(=O)CCc1nc(-c2ccc(C)cc2)no1	9	-2.5	-21	-1%	-1
COc1ccccc1C(=O)NCC1CCN(c2ccc(S(=O)(=O)N3CCOCC3)cc2)CC1	45*	-2.1	-15	4%	3
COc1ccc2[nH]c3c(=S)nc[nH]c3c2c1	-7	-0.2	.	4%	-2
CCOc1ccccc1CN1CCNC(=O)C1CC(=O)N(C)C1CCOCC1 (centres undefined)	.	-0.1	.	.	4
CCn1nnnc1SCC(=O)N1CCCc2ccccc21	7	0.7	-1	-9%	77
CCOC(=O)C1CCCN(CCC(C)c2ccccc2)C1 (centres undefined)	5	-0.4	13	1%	2
CCn1c(SCC(=O)N2CC(=O)Nc3ccccc32)nnc1-c1ccoc1C	-1	0.4	-39	.	-5
CC(C)n1c(SCC(=O)Nc2nc3c(s2)CCCC3)nc2c1c(=O)n(C)c(=O)n2C	-15	-1.8	-44	21%	-4
CC(N)C12CC3CC(CC(C3)C1)C2 (centres undefined)	0	1.3&4.6	.	-14%&0%	-9&-9
NS(=O)(=O)c1cc2c(cc1Cl)NC(Cc1ccccc1)NS2(=O)=O (centres undefined)	.	-0.2	.	4%	-9
CCc1nc2sc(C(=O)O)c(N)c2c2c1CCCC2	.	1.4	.	3%	50
Cc1ccc(S(=O)(=O)N/N=C/c2cn(C)nc2C)cc1	-4	.	-26	-6%	-2
CCn1c(C)nc2cc(C(=O)NNC(=S)Nc3ccc(Cl)cc3Cl)ccc21	10	2.7	-28	1%	3

In the list so far, these have an aryl methoxy group.
SMILES	Arbovirus inh	RecA splice inh	YopH inh	Mtb H37Rv	Mtb betalactam	others
COc1cc(/C=N/NC(=O)c2c(C)nc3ccc(Cl)cn23)cc(OC)c1OC	.	-0.3	.	.	-1
COc1cc(OC)cc(C(=O)N2CCN(c3ccccn3)CC2)c1	.	1.2	.	.	2
COc1ccc(Br)cc1CNC(=O)CCc1nc(-c2ccc(C)cc2)no1	9	-2.5	-21	-1%	-1
COc1ccccc1C(=O)NCC1CCN(c2ccc(S(=O)(=O)N3CCOCC3)cc2)CC1	45*	-2.1	-15	4%	3
COc1ccc2[nH]c3c(=S)nc[nH]c3c2c1	-7	-0.2	.	4%	-2

Sorted by SMILES length (lowest first): some entries from above
SMILES	Arbovirus inh	RecA splice inh	YopH inh	Mtb H37Rv	Mtb betalactam	others
CCn1nnnc1SCC(=O)N1CCCc2ccccc21	7	0.7	-1	-9%	77
CCOc1ccccc1CN1CCNC(=O)C1CC(=O)N(C)C1CCOCC1 (centres undefined)	.	-0.1	.	.	4
CCn1c(SCC(=O)N2CC(=O)Nc3ccccc32)nnc1-c1ccoc1C	-1	0.4	-39	.	-5
CCn1c(C)nc2cc(C(=O)NNC(=S)Nc3ccc(Cl)cc3Cl)ccc21	10	2.7	-28	1%	3
CC(C)n1c(SCC(=O)Nc2nc3c(s2)CCCC3)nc2c1c(=O)n(C)c(=O)n2C	-15	-1.8	-44	21%	-4

Retrieved by structure from the list above (3):
SMILES	Arbovirus inh	RecA splice inh	YopH inh	Mtb H37Rv	Mtb betalactam	others
CC(C)n1c(SCC(=O)Nc2nc3c(s2)CCCC3)nc2c1c(=O)n(C)c(=O)n2C	-15	-1.8	-44	21%	-4
CCOC(=O)C1CCCN(CCC(C)c2ccccc2)C1 (centres undefined)	5	-0.4	13	1%	2
Cc1c(NC(=O)c2ccccc2)c(=O)n(-c2ccccc2)n1C	-3	-0.5	-10	6%	0

Other structures follow.
SMILES	Arbovirus inh	RecA splice inh	YopH inh	Mtb H37Rv	Mtb betalactam	others
CC(OC(=O)CCCc1c[nH]c2ccccc12)C(=O)Nc1ccc(S(N)(=O)=O)cc1 (centres undefined)	.	1.3	.	.	8
CCCCc1nnc(NC(=O)C2CCCO2)s1 (centres undefined)	7	-0.6	-15	-9%	-8
CN(C1CCCCC1)S(=O)(=O)c1ccc(NC(=O)CCC(=O)O)cc1	1	-1.2	-28	-4%	-3
Cc1nn2c(NCc3ccccn3)c3c(nc2c1-c1ccccc1)CCC3	.	1.9	.	?	100
O=C(c1cc2cc3ccc(Cl)cc3nc2o1)N1CCC2(CC1)OCCO2	-6	1.0	-35	3.6µM*	98
CCOc1cc(NC(=S)NCCCN2CCOCC2)c(OCC)cc1NC(=O)c1ccc(OC)cc1	-1	3.5	.	-3%	8
O=C(c1c(F)cccc1F)N(Cc1ccccn1)C1CCCC1	2	0.8	-42	-2%	-7
CC(C)Oc1ccc(C(=O)/C=C2/C(=O)Nc3ccccc32)cc1	.	-0.2	.	.	8
CCCCCC(=O)Nc1ccc(Cl)cn1	1	1.0	-13	9%	-2
CN(C)S(=O)(=O)c1ccc(NC(=O)COC(=O)Cn2[nH]c(=O)c3ccccc3c2=O)cc1	.	0.3	.	-8%	6
COc1ccc(C(C(=O)NCC2CCCO2)N(Cc2ccco2)C(=O)c2snc(C(N)=O)c2N)cc1OC (centres undefined)	.	-1.1	.	.	-8
CN(Cc1ccccc1)CC(O)COc1ccc(CNCc2ccc(Cl)s2)cc1 (centres undefined)	-43	-0.3	.	15%	1
CCOC(=O)NC1CCS(=O)(=O)C1 (centres undefined)	3	0.3	-35	-6%	-7
O=C(Nc1nc2ccccc2[nH]1)c1ccccc1	-30	1.4	-5	19%	91
COc1cc(OC)cc(C(=O)Nc2ccc(S(=O)(=O)Nc3ccccn3)cc2)c1	.	-2.1	.	.	0
COc1cc(CN2CCN(C(=O)CC(C)C)CC2)cc(OC)c1OC	5	-1.2	-50	-9%	0
C/C(=N\NC(=O)c1nnn(-c2nonc2N)c1C)c1ccc(-c2ccccc2)cc1	.	0.1	.	.	11
CCOC(=O)C1CCCN(C(=O)CN2C(=O)C(CC)Oc3ccc(C)cc32)C1 (centres undefined)	0	0.2	-24	-3%	-1
O=C(CN1C(=O)NC2(CCCCCCC2)C1=O)N1CCOCC1	-1	-3.1	-36	0%	2
CC(=O)OC1COC(n2ccc3ccccc32)C(OC(C)=O)C1OC(C)=O (centres undefined)	5	2.2	-15	-5%	-3
COc1ccc(NS(=O)(=O)c2ccc(NC(=O)C(C)(C(F)(F)F)C(F)(F)F)cc2)nn1	1	0.2	-38	-6%	-2
Cc1ccc(CSc2nnc(-c3cccnc3)n2N)cc1	-2	1.5	-7	-11%	-1
Cc1nnc(Oc2ccccc2F)c2ccccc12	3	-0.6	-6	-7%	-6
CCn1c(SCC(=O)Nc2cc(C)on2)nc2c(c1=O)SC(C)C2 (centres undefined)	-1	-1.1	3	-3%	5
O=C(Nc1ccc2c(c1)OCCO2)c1cccc(S(=O)(=O)N2CCCCC2)c1	-11	1.6	-11	0%	-6
COc1ccc(C2=NOC(Cn3nc(C(=O)NCc4ccccc4OC)cc3-c3ccccc3)C2)cc1 (centres undefined)	.	3.5	.	.	1
O=C(CSc1n[nH]c(-c2ccccn2)n1)Nc1ccccc1	.	-4.0	.	.	-9
O=C1c2ccccc2-c2ncnc3c(N4CCOCC4)cc(N4CCOCC4)c1c23	-6	8.6	-6	7%	-1	Arbovirus inh repeat=-4
COc1cc(C2C(C#N)=C(N)N(c3cccnc3)C3=C2C(=O)CCC3)ccc1O (centres undefined)	10	-8.1	-22	-10%	1
COc1ccc2c(c1)C1=C(CC2)C(c2ccc(C)cc2)NC(=S)N1 (centres undefined)	0	-3.2	.	6%	-3
COc1cc(NC(=O)CSc2nccc(=O)[nH]2)c(C)cc1[N+](=O)[O-]	13	7.9	.	2%	-1
COC(CNC(=O)c1ccc2c(=O)n(Cc3ccc(Cl)cc3)c(=S)[nH]c2c1)OC	.	-1.7	.	.	-2
CC1CCN(S(=O)(=O)c2ccc(C(=O)Nc3nnc(-c4ccccn4)o3)cc2)CC1	1	1.8	.	-7%	15
COc1ccc(NC(=O)c2ccc(Cl)nc2)cc1S(=O)(=O)N1CCCCC1	-15	-0.3	.	0%	-6
COc1ccc2c(c1)C(NC(C)=O)C(=O)N2C (centres undefined)	4	-2.1	1	-9%	-8
O=C(Nc1ccccc1)Nc1nc(-c2ccc(F)c(F)c2)cs1	.	6.4	.	.	6
O=C(c1ccc([N+](=O)[O-])cc1)N(Cc1ccc(Cl)cc1)N1C(=O)CCCC1=O	2	-1.3	-4	0%	-12
O=C(O)/C=C/C(=O)Nc1ccc2nccnc2c1	2	-1.3	.	-1%	-11
Cc1nn(CCCC(=O)NC(C)c2ccccc2)c(=O)c2nn(-c3ccccc3)c(C)c12 (centres undefined)	.	4.1	.	.	1
COc1ccc(CN(C(=S)Nc2ccccc2)C2CC(=O)N(c3ccc(F)cc3)C2=O)cc1 (centres undefined)	-3	0.4	-23	0%	-2

Gathered by group: the entries above with a CF3 group
SMILES	Arbovirus inh	RecA splice inh	YopH inh	Mtb H37Rv	Mtb betalactam	others
O=S(=O)(NCc1ccc(C(F)(F)F)cc1)c1ccc(-n2cnnn2)cc1	.	-0.6	.	.	-3
COc1ccc(NS(=O)(=O)c2ccc(NC(=O)C(C)(C(F)(F)F)C(F)(F)F)cc2)nn1	1	0.2	-38	-6%	-2

These rows are one share of the data; count on the stated rates, not on these rows.
